# Screening data (PubChem BioAssay)
# VACV mCherry inh: qHTS for Stage-Specific Inhibitors of Vaccinia Orthopoxvirus: mCherry Reporter Primary qHTS. Potency, µM (series often up to 36.5 µM), without a hit: at the top dose activity change, negative = inhibition, usual class: inhibitors. 310,000 tested, 0.63% active. Vaccinia virus mCherry reporter infection, fluorescence; about a quarter of the inactives have no number; active = well fitted inhibition curve with a large enough effect; inconclusive = small, poorly fitted or top-dose-only effect; inactive = no such curve, though single readings can be large or run the other way; tested in A549 cells; note: nearly all actives have a fitted effect of over 35% in size; inactives centre near -10
# Vaccinia Venus: qHTS for Stage-Specific Inhibitors of Vaccinia Orthopoxvirus: Venus Reporter Primary qHTS; Potency, µM (series often up to 36.5 µM), for the others: top-dose activity change, negative = inhibition, hits mostly inhibitors; Vaccinia virus Venus reporter expression, fluorescence; 330,000 tested, 0.46% active; AID 720580, 2013; active means well fitted inhibition curve with a large enough effect; inconclusive means small, poorly fitted or top-dose-only effect; inactive means no such curve, though single readings can be large or run the other way; tested in A549 cells; note: nearly all actives have a fitted effect of over 30% in size; inactives centre near -10
# Active calls of the source: *; i = inactive; u = inconclusive; x = not tested or not shown; & = joins results of further samples; [ ] = another dose, or the depositor's remark. % is set by controls: 0 for no effect and ±100 for the full control effect; potency is the fitted concentration of half-maximal effect.
SMILES,VACV mCherry inh,Vaccinia Venus
CC(C)Cc1cc(C(=O)N2CCC(N3CCC(C(=O)NC4CC4)CC3)CC2)n[nH]1,0%,3%
COc1ccc(-c2c3c(=O)n(C)c(=O)n(C)c3c3c(-c4ccc(C)cc4)nc4ccccc4n23)cc1,-20%,3%
CCCNC(=O)N1[C@H]2CC[C@@H]1C(C(=O)OC)=C(c1ccc(OC(F)(F)F)cc1)C2,-6%,-17%
Cc1ccc(C(=O)N2CCN(c3ccccn3)CC2)cc1[N+](=O)[O-],i,-9%
Cc1cc(C)n(CC(C)NC(=O)CCc2nnc(CCc3ccccc3)o2)n1 (centres undefined),-1%,-20%
Cc1ccc(-n2nc3c(c2NC(=O)c2c(-c4ccccc4Cl)noc2C)CS(=O)(=O)C3)c(C)c1,-20%,-17%
O=C(CN1CCN(CC(=O)Nc2ccc(-c3ccccc3)cc2)CC1)Nc1ccc(F)cc1,i,-13%
O=C(CNC(=O)c1ccccc1)OCc1nnc(-c2ccccc2)o1,i,-12%
CC1CCCC(NC(=O)COC(=O)/C=C/c2ccc([N+](=O)[O-])cc2)C1C (centres undefined),i,-11%
C=CCNc1ncnc2c1ncn2[C@H]1CN(Cc2ccccc2)C[C@@H](CO)O1,1%,-3%

# The closing seven records of the part before lead into the next.
SMILES,VACV mCherry inh,Vaccinia Venus
Cc1ccc(C(=O)N2CCN(c3ccccn3)CC2)cc1[N+](=O)[O-],i,-9%
Cc1cc(C)n(CC(C)NC(=O)CCc2nnc(CCc3ccccc3)o2)n1 (centres undefined),-1%,-20%
Cc1ccc(-n2nc3c(c2NC(=O)c2c(-c4ccccc4Cl)noc2C)CS(=O)(=O)C3)c(C)c1,-20%,-17%
O=C(CN1CCN(CC(=O)Nc2ccc(-c3ccccc3)cc2)CC1)Nc1ccc(F)cc1,i,-13%
O=C(CNC(=O)c1ccccc1)OCc1nnc(-c2ccccc2)o1,i,-12%
CC1CCCC(NC(=O)COC(=O)/C=C/c2ccc([N+](=O)[O-])cc2)C1C (centres undefined),i,-11%
C=CCNc1ncnc2c1ncn2[C@H]1CN(Cc2ccccc2)C[C@@H](CO)O1,1%,-3%
NS(=O)(=O)c1ccc(CCNC(=O)C(c2ccccc2)c2ccccc2)cc1,i,-5%
Cc1ccc(C(=O)Nc2cccc(-c3nc(CNC(=O)C4CCCCC4)c(C)o3)c2)s1,u,u
COC(=O)c1sccc1S(=O)(=O)N(CC(=O)NCc1ccc(C)cc1)c1ccccc1,-2%,-7%
CCCC(=O)Nc1ccc(NC(=O)CCc2ccccc2)cn1,-17%,-15%
CC(=O)c1cccc(Nc2nc(-c3sc(C)nc3C)cs2)c1,-19%,u
COc1ccc(OCC(=O)Nc2ccc(S(=O)(=O)N3CCCC3)cc2)cc1,-1%,-17%
CC(C)Cn1cc(F)c(=O)n(CC(C)C)c1=O,-10%,4%
O=C(Nc1ccc2ncccc2c1)c1ccccc1,-23%,-4%
COCCCNC(=O)c1cc2c(=O)n(C)c3ccccc3c2n1C,-25%,-21%
CCC(=O)N/C(=N/c1nc(C)cc(C)n1)Nc1ccccc1,-13%,-8%
COc1ccc(N2CCc3c(C)nc4c(OC)cc(OC)cc4c32)cc1,u,u
COc1ccc(Br)cc1CNC(=O)C1CCN(c2nnc(-n3cccc3CNc3ccc(C)cc3)s2)CC1,-16%,-19%
CCn1c(=O)cc(OCC(=O)Nc2ccccc2Cl)c2ccccc21,-11%,-10%
O=C(c1nn2c(C(F)(F)F)cc(-c3ccco3)nc2c1Br)N1CCCc2ccccc21,u,u
O=C(NCCc1ccccc1)c1ccc(-c2ccc(F)cc2)o1,i,-12%
COc1ccc(CC(=O)N2CC(C)CC(C)C2)cc1OC (centres undefined),-3%,-12%
CCOC(=O)C1CCCN(C(=O)c2ccc(-c3ccccc3Cl)o2)C1 (centres undefined),i,-13%
COc1ccc2[nH]c3c(N4CCc5ccccc5C4)ncnc3c2c1,u,14µM*
Cc1cc(C)cc(N(CC(=O)N2CC=C(c3ccccc3)CC2)S(=O)(=O)c2c(C)noc2C)c1,i,-8%
CCC(=O)N1CCc2cc(S(=O)(=O)NC(Cc3ccccc3)C(=O)NCc3ccc(F)cc3)ccc21 (centres undefined),-2%,-3%
Cc1ccc(S(=O)(=O)c2nnn3c2nc(N2CCC(C(N)=O)CC2)c2ccccc23)cc1,i[7.34 µM],-19%[7.34 µM]
COc1ccc(NC(=O)/C=C/c2ccc(OC(F)F)cc2)cn1,u,u
CCc1ccc(C(=O)CSc2nc(C)cc(=O)[nH]2)cc1,i,-9%
COc1cccc2c1Oc1ncccc1N(C(=O)CCC(=O)NCc1ccccc1Cl)C2,-12%,-12%
COc1ccc(NC(=S)N2CCN(C(=O)C3CCCO3)CC2)c(OC)c1 (centres undefined),i,8%
COc1cc(OC)nc(Nc2nc(C(N)Cc3ccc(C(F)(F)F)cc3)cs2)n1 (centres undefined),u,u
CC(C)CN(C(=O)CN1CCN(c2ccc(O)cc2)CC1)c1c(N)n(CC(C)C)c(=O)[nH]c1=O,-12%,7%
COc1ccc(OC)c(NC(=O)c2ccc(OCC(=O)N3CCOCC3)c(OC)c2)c1,-1%,-10%
C=CCNc1cc(C)oc(=O)c1C(=O)CC,7%,-6%
CC(C)CCNC(=O)c1ccccc1NC(=O)C1=CSCCO1,-3%[7.34 µM],3%[7.34 µM]
CS(=O)(=O)N1CCC(Oc2ccccc2C(=O)N2CCC[C@H]2CO)CC1,i,-11%
COc1ccc(C2CC(=O)NC3=C2C(=O)CCC3)cc1Cl (centres undefined),x,u
Cc1ccc(C)c(OCC(=O)NC2CCCCCC2)c1,-20%,-7%
Nc1ccc(C(=O)OCCCc2nc3ccccc3[nH]2)cc1,x,-3%
Cc1cc(=O)n(CC(=O)NCc2ccc(OC(C)C)cc2)c2c1c(C)nn2-c1cccc(F)c1,-25%,-12%
c1ccc(CN2CCOCCOCCOCCOCC2)cc1,i[7.34 µM],2%[7.34 µM]
CC[C@](C)(O)c1cc2ccccc2c(=O)o1,i,-3%
O=C(N/N=C\c1ccncc1)c1ccc(Br)s1,i,-15%
O=C(CCn1cncn1)N1CCCC(N2CCN(c3cccc(C(F)(F)F)c3)CC2)C1 (centres undefined),-2%,-15%
C=CCSC1=N/C(=C\C=C\c2ccco2)C(=O)S1,x,-3%
COc1cccc(CNc2ccccc2O)c1OCc1ccccc1F,-20%,-5%
COc1ccccc1NC(=O)C(C)OC(=O)C(C)SCC(=O)Nc1ccc(C)cc1 (centres undefined),-13%,-6%
O=C(CSc1ncnc2ccccc12)c1ccco1,u,u
OC[C@@H]1[C@@H](c2ccccc2)C(c2ccc(F)cc2)=NN1c1ccccc1,u,-28%
Cc1cccc(CNC(=O)C2CCC(=O)N(C3CCCC3)C2)c1 (centres undefined),-9%,-5%
Cc1cccc(NC(=O)/C=C/c2ccc3c(c2)OCO3)n1,i,-16%
Cc1cccc(C)c1NC(=O)CSc1nccn1C,23%,32%[activator]
CN(C)c1ccc(-c2ccnc3c2CC(C)(C(=O)Nc2ccc4c(c2)OCO4)O3)cc1 (centres undefined),13%,-1%
C[C@H](CO)N1C[C@H](C)[C@@H](CN(C)C(=O)NC2CCCCC2)Oc2ccc(NC(=O)C3CCCCC3)cc2C1=O,i,-17%
CCCSC1=N/C(=C/c2ccsc2)C(=O)N1c1ccccc1,-2%,-9%

# (listing goes on)
SMILES,VACV mCherry inh,Vaccinia Venus
COc1ccccc1C(=O)N(CCC1CCCN1C)c1nc2ccccc2s1 (centres undefined),3%,-7%
CCCCCCn1c(NCC)nc2c1c(=O)[nH]c(=O)n2C,x,-5%
Cc1ccc(CCNC(=O)Cn2nc(C)c3c(C)n(-c4ccc(C)cc4)nc3c2=O)cc1,u,u
CCOc1ccc(S(=O)(=O)Nc2ccc(C(=O)NCCCN3CCOCC3)cc2)cc1,i,-7%
CCCCCCCCn1sccc1=O,-12%,-15%
CC(C(O)c1ccccc1)N(C)CCn1cnc2c1c(=O)n(C)c(=O)n2C (centres undefined),1%,-5%
COc1cccc(C(=O)N2CCN(C(=O)COc3ccc4ccccc4c3)CC2)c1,-21%,-18%
CCc1ccc(NC(=O)C2CCN(c3nn4cc(-c5ccc(OC)cc5)nc4s3)CC2)cc1,-5%,-10%
COc1ccccc1CNS(=O)(=O)c1ccc2c(c1)CC(=O)N2C,-18%&0%,-5%&1%
O=C(CN1CCCN(Cc2ccc(Cl)cc2)S1(=O)=O)Nc1ccccc1F,-7%,-13%
Cc1ccccc1S(=O)(=O)Nc1nc2ccccc2nc1NCCO,-3%[1.46 µM],2%
CC(=O)Nc1c(C)ccc(CNC(=O)COc2ccc(F)cc2)c1C,i,-4%
O=C(Nc1ccc(N2CCN(C(=O)c3cccs3)CC2)cc1)c1ccco1,3%,3%
Cc1cc(=O)oc2cc(OCC(=O)NCCN3CCOCC3)ccc12,i,-8%
Cc1cccc(NC(=O)CN2C(=O)S/C(=C\c3ccc(-c4cccc(C(=O)O)c4C)o3)C2=O)c1,i,10%
O=C(COC(=O)c1ccc(O)cc1)NC(c1ccccc1)c1ccccc1,i,-18%
CN(CC(=O)Nc1ccc(F)cc1)C(=O)CN1C(=O)NC2(CCCC2)C1=O,u,-6%
CC1Cc2ccccc2N1C(=O)c1cc2sccc2n1Cc1ccc(F)cc1 (centres undefined),-16%,-13%
CCc1ccc(N2C(=O)C3C4CCC(C4=C(C)C)C3C2=O)cc1 (centres undefined),-3%,-10%
CS(=O)(=O)N(CC(=O)Nc1ccc(CC#N)cc1)c1ccc(C23CC4CC(CC(C4)C2)C3)cc1,u,u
COc1ccc(CNC(=O)[C@@H]2CC=C[C@@H]3CCN(C4CCCCC4)C(=O)[C@@H]32)cc1,i,-3%&-11%
CCOC1=C/C(=C/c2c(N)n3nc(CC(=O)N4CCCC4)sc3nc2=O)C=CC1=O,-16%,13%
CCCCNC(=O)c1onc(CSc2cc(C)ccc2C)c1C(=O)O,-14%,-9%
Cc1cc(S(=O)(=O)N2CCOCC2)ccc1OCC(=O)N1CCC(C(N)=O)CC1,-10%,-1%
Cc1cc(Cl)c(S(=O)(=O)N2CCSCC2)cc1OCC(N)=O,-14%,-10%
c1ccc(CNC23CC4CC(CC(C4)C2)C3)nc1,-16%,-4%
C1CC(=NN=C2CCSCC2)CCS1,-17%,2%
O=C(COC(=O)Cc1ccsc1)NCC1CCCCC1,i,-4%
CC(C)C(=O)Nc1ccc(NC(=O)c2cccnc2)cn1,x,-13%
CCOC(=O)c1c(C)[nH]c(C)c1C(=O)COC(=O)C1CC(=O)N(CCc2ccccc2)C1 (centres undefined),-17%,-10%

# Compound profiles, as listed above. Order of screens: VACV mCherry inh, Vaccinia Venus
# Results for `Cc1cc(S(=O)(=O)N2CCOCC2)ccc1OCC(=O)N1CCC(C(N)=O)CC1` = -10%, -1%
# Results for `COc1ccc(CNC(=O)[C@@H]2CC=C[C@@H]3CCN(C4CCCCC4)C(=O)[C@@H]32)cc1` = i, -3%&-11%
# Results for `O=C(COC(=O)Cc1ccsc1)NCC1CCCCC1` = i, -4%
# Results for `CCOC1=C/C(=C/c2c(N)n3nc(CC(=O)N4CCCC4)sc3nc2=O)C=CC1=O` = -16%, 13%
# Results for `c1ccc(CNC23CC4CC(CC(C4)C2)C3)nc1` = -16%, -4%

# Later entries:
SMILES,VACV mCherry inh,Vaccinia Venus
COc1ccc(CC(=O)NCc2ccc3c(c2)CCN3C(=O)c2cccc(C)c2)cc1,-11%,-12%
CNc1c(Cl)cc(C=O)cc1Cl,25%,-9%
COc1ccc(NC(=O)N2CCCCCC2)c(OC)c1,-11%,-8%
CCN1CCN(C(=O)c2cc(=O)c3cc(C)ccc3o2)CC1,1%,6%
COc1ccc(C[C@H]2CN3C(=NC[C@@H]3C(C)C)N2C[C@H](C)NC(=O)c2ccc(C)c(Br)c2)cc1,u,u
CCOC(=O)C1=C(C)N=C2SC(C(=O)OC)=CC(=O)N2C1c1ccc(F)cc1 (centres undefined),-23%,-14%
C/C=N/N(c1ccccc1)c1ccccc1,u,-7%
O=C(NCCc1ccccc1)c1cnc2sccn2c1=O,6%,-5%
S=C(NCc1ccco1)N1CCC(c2nc3ccccc3o2)CC1,-12%,-15%
COc1ccc(C2=CCCCCC2)cc1OC,i,-2%
O=C(CN(c1ccc(Cl)c(Cl)c1)S(=O)(=O)c1ccccc1)N1CCc2ccccc2C1,i,-11%
COc1ccc(CN(C(=O)c2cc3ccccc3oc2=O)C2CCS(=O)(=O)C2)cc1 (centres undefined),-17%&-8%,1%&-4%
CCCn1c(N)c(C(=O)COC(=O)CCNS(=O)(=O)c2ccccc2F)c(=O)[nH]c1=O,i,-14%
CN1CN(c2ccccc2)C2(CCN(CCCSc3ccccc3NC(=O)/C=C/c3ccccc3)CC2)C1=O,u,33%[activator]
COc1ccc2oc(=O)c(-c3nnc(-c4ccc(C)cc4)o3)cc2c1,-2%,-4%
Cc1cc(=O)oc(C)c1C(=O)OCC(=O)c1ccc(Cl)c(Cl)c1,-13%,-12%
COCCN(C(=O)CCC(=O)Nc1cc(C)on1)C(C(=O)NC(C)(C)C)c1ccc(OC)cc1 (centres undefined),i,-10%
Nc1nnc(C(F)(F)F)s1,i,-17%
CC(C)c1ccccc1NS(=O)(=O)N(C)C,i,-2%
Cc1cccc(NC(=O)CN(C)C(=O)C2CC2)c1C,-14%,-18%
CN(Cc1ccccc1)c1nc(N)nc(Cl)c1C=O,i,-6%
CC(C)c1ccc(OC(=O)NCCO)cc1,x,-24%
O=C1c2ccccc2C(=O)N1c1ccc(Cl)cn1,-19%,-11%
COCCCNCCOCCOc1ccc(Cl)cc1C(C)(C)C,u,u
COCCNC(=O)COC(=O)c1ccc(OCC(=O)Nc2ccccc2OC)c(OC)c1,-17%,-19%
C/C(=N\O)c1ccc2c(c1)OCCO2,1%,-16%
